# Resorufin fluor = compounds fluorescent in resorufin spectral region | max dye-equivalent concentration, M | Compound fluorescence, resorufin region 547/598 nm, buffer; hits give high values | AID 588 | 0.04% of 59,000 active; active = above 10 nM dye equivalent; inconclusive = 1 to 10 nM; inactive = 1 nM or less; a few of its hits are not listed in these tables; note: highest value over a series up to 38 µM
#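 Compounds in 100 mM Tris buffer, pH 8.0, incubated 15 min at room temperature, then read with 547 nm excitation and 598 nm emission filters. Fluorescence was converted to dye-equivalent concentration using an on-plate six-point resorufin standard curve.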
# A647 autofl = compound fluoresces in the A647 spectral region. 59,000 tested, under 10 active. max dye-equivalent concentration, M. Compound fluorescence, A647 channel (570/671 nm), Tris buffer; active means above 1 µM dye equivalent; inconclusive means 0.1 to 1 µM; inactive means 0.1 µM or less;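 note: values scaled relative to a standard on each plate; highest value over a series up to 38 µM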
#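 Fluorescence read (570 nm ex, 671 nm em) after 15 min RT incubation of compounds in 100 mM Tris buffer, pH 8.0; values expressed as dye-equivalent concentration against a six-point A647 standard series on each plate.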
# A488 autofl = A488 region autofluorescence | AID 591 | compound autofluorescence, A488 spectral region, dye equivalency; hits give high values | 0.1% of 59,000 active | max dye equivalency, M; active = above 10 nM dye equivalent; inconclusive = 1 to 10 nM; inactive = 1 nM or less; about half of its hits are not listed in these tables;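 note: highest value over a series up to 38 µM; compound alone in buffer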
#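 Read-out: relative fluorescence at 480/540 nm, expressed as Alexa 488 dye-equivalent concentration from a six-point A488 standard included per plate. Conditions: 100 mM Tris, pH 8.0; 15 min incubation, room temperature.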
# AID923 = qHTS Assay for Allosteric/Competitive Inhibitors of Caspase-1: Spectroscopic Profiling in AFC Spectral Region; compound fluorescence, AFC spectral region (405/520 nm); almost no hit is shown here; Potency, µM (titrated, usually from 57.5 µM), for the others: at the top dose fluorescence increase, actives largely listed as activators; 1.1% of 75,000 active; AID 923, 2007; active = well fitted activation curve with a large enough effect; inconclusive = small, poorly fitted or top-dose-only effect;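 note: potency is the fitted concentration of half-maximal effect; 0% is about no effect; scaled to a free AFC standard on each plate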
#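 Baseline compound fluorescence (AFC region, 405 nm ex/520 nm em) taken from the intercept of kinetic reads with 50 nM caspase-1 and 5 uM Ac-WEHD-AFC; normalized to an on-plate AFC standard curve; compounds titrated up to 57 uM.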
# TSHR agonist = agonists of human thyroid stimulating hormone receptor | P16473 | HEK293-CNG-TSHR cells (CNG channel as cAMP sensor), membrane potential dye, cAMP | Potency, µM (series often up to 57.1 µM), without a hit: top-dose activation, hits mostly activators | 0.48% of 73,000 active; active = well fitted activation curve of enough size with the parental cells flat; inconclusive = any curve in the parental cells; inactive = parental cells flat and receptor cells flat or falling; note: potency is the fitted concentration of half-maximal effect; % of control where 0% means no effect; weak receptor curves with flat parental cells got no call and are not listed
# Target sequence (P16473 whole entry, looked up): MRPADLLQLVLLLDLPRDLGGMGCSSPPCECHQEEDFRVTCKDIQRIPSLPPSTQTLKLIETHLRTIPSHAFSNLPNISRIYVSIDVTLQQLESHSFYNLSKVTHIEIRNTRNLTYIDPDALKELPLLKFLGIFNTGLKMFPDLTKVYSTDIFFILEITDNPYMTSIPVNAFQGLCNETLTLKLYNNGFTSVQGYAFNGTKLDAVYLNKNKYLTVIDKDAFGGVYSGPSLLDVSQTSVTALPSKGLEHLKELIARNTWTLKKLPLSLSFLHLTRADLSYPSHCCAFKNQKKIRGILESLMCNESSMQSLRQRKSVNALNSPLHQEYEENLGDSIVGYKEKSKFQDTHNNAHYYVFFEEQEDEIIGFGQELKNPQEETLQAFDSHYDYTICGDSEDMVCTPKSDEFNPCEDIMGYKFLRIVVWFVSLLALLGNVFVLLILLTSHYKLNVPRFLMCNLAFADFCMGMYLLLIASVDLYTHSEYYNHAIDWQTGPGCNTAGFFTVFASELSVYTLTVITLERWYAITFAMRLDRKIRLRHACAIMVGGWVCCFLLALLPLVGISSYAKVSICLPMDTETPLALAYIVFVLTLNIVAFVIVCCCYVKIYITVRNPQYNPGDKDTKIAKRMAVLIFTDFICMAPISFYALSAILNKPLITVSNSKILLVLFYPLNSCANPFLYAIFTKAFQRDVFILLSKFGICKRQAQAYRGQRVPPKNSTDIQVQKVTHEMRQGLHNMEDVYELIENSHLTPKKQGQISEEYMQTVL
#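 HEK 293 cells stably expressing TSHR and a modified CNG channel, with CNG-only parental cells as counterscreen, were preloaded 60 min at room temperature with membrane potential dye containing 100 uM RO 20-1724. Compound exposure was 30 min, and depolarization was read as fluorescence at 590 nm.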
# * marks the source's active call; other numbers are inactive results; i = inactive; ? = inconclusive; nt = not tested or not shown; & = joins results of further samples; [ ] = another dose, or the depositor's remark.
SMILES,Resorufin fluor,A647 autofl,A488 autofl,AID923,TSHR agonist
Cn1cc(C(F)(F)F)nc1-c1ccc(OC[C@@H](O)CNCCOc2ccc(O)c(C(N)=O)c2)cc1,i,2.9e-09,i,-1.4%&-2.1%,6%&4%
Cc1ccc(C(=O)CC2(O)C(=O)N(C)c3ccc(Br)cc32)c(C)c1 (stereo not drawn),nt,nt,nt,-3.9%,-3%
Cc1ccc(CN2CCC(C(=O)NCCC(C)C)CC2)o1,i,2.9e-09,i,0.1%,5%
O=C(Nc1cccc(F)c1)N1CCC2(CC1)CCN(C(=O)c1ccco1)CC2,i,1e-09,i,1.4%,-2%
CC(=O)c1c(C)n([O-])c2ccc(C)cc2[n+]1=O,i,3.3e-09,i,1.3%,-1%
CCCCOc1ccc(C2CC(=O)NC2=O)cc1 (stereo not drawn),i,2e-09,i,-0.7%,4%
O=C(O)c1ccccc1C(=O)Nc1ccccc1,i,1e-09,i,-0.8%,-2%
CCOCC(=O)O,nt,nt,nt,1.0%,-5%
Cn1c(=O)cc(SCC(=O)Nc2ccc3c(c2)OCO3)c2ccccc21,i,4e-09,i,1.4%,0%
N=c1c2c3c(sc2nc2n1CCC2)CCCC3,i,1.7e-08,i,0.7%,18%
Cc1nc(=O)c(-c2ccccc2)c(C)n1CCCO,i,1e-09,i,0.5%,nt
C(=Nc1ccc2c(c1)Cc1ccccc1-2)c1ccccn1,i,1e-09,i,5.3%[11.5 µM],-6%[11.4 µM]
CCOC(=O)N1CCN(c2c(NCCCN(CC)c3cccc(C)c3)c(=O)c2=O)CC1,i,5.5e-09,i,0.1%,-2%[11.4 µM]
O=C(CSc1nnnn1-c1ccccc1)c1cc2ccccc2oc1=O,i,1.6e-08,i,2.4%,9%
COC(=O)Nc1ccc(S(=O)(=O)N2CCCC(C(=O)Nc3cccc4c3OCCO4)C2)cc1 (stereo not drawn),i,2.6e-08,i,-0.4%,-11%
Nc1ccc(-c2ccc(Nc3cc(S(=O)(=O)O)c(N)c4c3C(=O)c3ccccc3C4=O)cc2)c(S(=O)(=O)O)c1,i,1e-09,i,-0.1%[11.5 µM],-3%[11.4 µM]
CCC(C)[C@H](NC(=O)NCc1ccccc1Cl)C(=O)OC (stereo partly drawn),i,1e-09,i,-0.4%,25%
CC1(C)CC(=O)C2=C(C1)OC(N)=C(C#N)C21CCC2(CC1)OCCO2,i,7.5e-09,i,1.9%,1%
O=C(CCCOc1ccccc1)NCC1CCCO1 (stereo not drawn),nt,nt,nt,2.4%,1%
COc1ccc(-c2cc(-c3ccccc3O)[nH]n2)cc1OC,nt,nt,nt,-0.6%,5%
Cc1nnc(SCc2ccc(CC(=O)O)cc2)o1,i,6.9e-09,i,0.8%,2%
O=C1C(c2ccc(F)cc2)N(Cc2ccc3c(c2)OCO3)C(=O)CN1C1CCCCC1 (stereo not drawn),i,3.7e-09,i,-2.0%,nt
C=C(C)CSc1nnc(-c2ccccc2)n1N,i,1e-09,i,0.1%,3%
O=C(CCC1N=C2c3ccccc3N=C(SCc3cccc(Cl)c3)N2C1=O)NCc1ccco1 (stereo not drawn),i,1.9e-08,i,1.4%,?
O=S1(=O)C=CC(Sc2nc3ccccc3[nH]2)C1 (stereo not drawn),i,1e-09,i,0.0%,0%

# Retrieved one by one from the list above (two):
SMILES,Resorufin fluor,A647 autofl,A488 autofl,AID923,TSHR agonist
C=C(C)CSc1nnc(-c2ccccc2)n1N,i,1e-09,i,0.1%,3%
O=C(CSc1nnnn1-c1ccccc1)c1cc2ccccc2oc1=O,i,1.6e-08,i,2.4%,9%

# Going on with the list:
SMILES,Resorufin fluor,A647 autofl,A488 autofl,AID923,TSHR agonist
CC1Cc2ccccc2N1C(=O)c1cccnc1 (stereo not drawn),i,6.7e-09,i,-4.9%,0%
Cc1ccccc1Cn1ccc(NC(=O)c2cnn3cccnc23)n1,i,1e-09,i,-1.1%,19%
Cc1ccc2nc(NC(=O)CNS(=O)(=O)c3ccc(Br)s3)sc2c1,i,8.4e-09,i,-0.5%,2%
CC1(C)OCC([C@H](O)C2=CCCCC2=O)CO1,nt,nt,nt,0.7%[11.5 µM],18%[11.4 µM]
O=C(Nc1cccc(-c2cn3cccnc3n2)c1)c1ccc2c(c1)OCO2,i,2.9e-08,i,3.1%,-5%
CCOC(=O)C1=C(C)NC(=O)NC1c1ccco1 (stereo not drawn),i,3.1e-09,i,-0.4%,-3%
CCCCSc1nnc2n(CCc3ccccc3)c(=O)c3c4c(sc3n12)COC(C)(C)C4,i,3.8e-09,i,nt,nt
COc1ccc2[nH]c(=O)c(CN(CCCN(C)C)C(=O)Nc3ccc(F)cc3)cc2c1,i,1e-09,i,-1.5%,5%
C=CCOC(=O)COc1ccc2c(C)c(C)c(=O)oc2c1C,nt,nt,nt,-1.8%,?
O=C1N=C(c2ccccc2)C(c2ccccc2)N1 (stereo not drawn),nt,nt,nt,3.3%,-9%[11.4 µM]
Cc1cc2nc(-c3ccc(NC(=O)c4cccnc4)cc3)oc2cc1C,i,2.4e-08,i,0.3%,-6%
CCn1nc(C(=O)NC2=NCCS2)c2ccccc2c1=O,i,3e-08,i,-1.0%,9%[11.4 µM]
O=C(C1CCCCN1S(=O)(=O)c1ccc(F)cc1)N1CCN(c2ccccc2F)CC1 (stereo not drawn),nt,nt,nt,1.2%,8%
CCN(CC)C(=O)NC1CC2CCCC(C1)N2Cc1ccccc1 (stereo not drawn),i,4.3e-09,i,1.8%,7%
COc1cccc(N2CCN(C(=O)CN(c3ccc(C)cc3)S(=O)(=O)c3c(C)n[nH]c3C)CC2)c1,nt,nt,nt,-0.8%,-2%
Cc1nn(-c2ccccc2)c2sc(C(=O)OC3CCOC3=O)cc12 (stereo not drawn),i,3.6e-08,i,-0.2%,6%
c1cc2c3c(cccc3c1)NC1(CCCCCC1)N2,i,3.1e-09,i,5.1%,nt
Cc1nc2c(c(=O)n1Cc1ccco1)c1nc3ccccc3nc1n2Cc1ccccc1,i,3.6e-09,i,16%,nt
CCOC(=O)C1=C(CC)Nc2ccccc2N=C1NC(=O)Cn1cnc2ccccc2c1=O,i,2.6e-09,i,1.0%,-5%[11.4 µM]
CCN1CCC[C@@H](OC(=O)C(c2ccccc2)c2ccccc2)C1,i,4.6e-09,i,-2.1%[25.7 µM],11%[25.6 µM]
CCN(CCCNC(=O)CCCn1c(=O)[nH]c2ccccc2c1=O)c1cccc(C)c1,i,1.8e-09,i,3.5%,1%
CC(=O)N1C(=O)C2(Nc3ccccc3N2)c2ccccc21,nt,nt,nt,-0.8%,-6%
COc1ccc(Cc2nnc3n2N=C(c2cc4ccccc4o2)CS3)cc1OC,i,2.6e-08,i,-0.5%,?
COc1ccc(N2CCN(C(CNC(=O)c3ccco3)c3cccnc3)CC2)cc1 (stereo not drawn),i,3.9e-08,i,-0.2%,-1%
COc1ccc(-n2c(Cc3cccn3C)nnc2SCC(=O)Nc2ccc(F)cc2F)cc1,nt,nt,nt,0.6%,3%

# (continued)
SMILES,Resorufin fluor,A647 autofl,A488 autofl,AID923,TSHR agonist
COc1ccc2cc3cc(C(=O)NCCN4CCN(c5ccccc5F)CC4)oc3nc2c1,i,1e-09,i,-0.4%,?
CCn1nc(CC(=O)Nc2ccc(-n3cnnn3)c(C)c2)c2ccccc2c1=O,i,2.2e-09,i,-0.2%,-9%[11.4 µM]
CC(C)[N+](C)(CCOC(=O)C1c2ccccc2Oc2ccccc21)C(C)C,i,9.6e-09&2.5e-09&2.4e-09,i,-1.0%,?
CCC(=O)N1CCN(c2ccccc2NC(=O)COc2ccccc2Cl)CC1,i,2.9e-08,i,1.8%,nt
Oc1cccc2ccc(Nc3ccccn3)nc12,nt,nt,nt,1.1%,?
O=C1CCC(=O)N1CN(Cc1ccco1)CN1C(=O)CCC1=O,i,3.4e-09,i,nt,nt
Cn1c(=O)c2c(O)cc(=O)[nH]c2n(-c2ccccc2)c1=O,i,1e-09,i,0.8%,1%
O=C(c1cc(C(F)(F)F)cc(C(F)(F)F)c1)N1CCC2(CCCN(Cc3nccs3)C2)CC1,i,3e-09,i,0.7%,6%
CCCCC(=O)O[C@]1(C(=O)CO)CC[C@H]2[C@@H]3CCC4=CC(=O)CC[C@]4(C)[C@H]3[C@@H](O)C[C@@]21C,i,1e-09,i,nt,nt
CCN(CC)c1ccc(NC(=O)CC2Oc3ccccc3NC2=O)c(C)c1 (stereo not drawn),nt,nt,nt,1.0%,4%
COC(=O)c1c(NS(C)(=O)=O)sc2c1CCCC2,i,1.5e-09,i,-1.3%,10%
Cc1[nH]c(=O)[nH]c(=O)c1S(=O)(=O)N(C)Cc1ccccc1,i,1e-09,i,1.8%,-5%
CCC(C)Sc1nc2c(c(=O)n1C)SC(C)C2 (stereo not drawn),nt,nt,nt,-2.3%,?
COc1ccc(C(=O)NCc2c(CC(C)C)oc(C)c2C(=O)O)cc1,i,1.2e-09,i,0.8%,17%
c1ccc(-c2n[nH]nc2-c2ccccc2)cc1,i,2.9e-08,i,-0.9%,17%
O=C(COC(=O)c1cccnc1)Nc1ccc(F)cc1,i,3.5e-09,i,-1.2%,0%
O=C(CC(c1ccc(F)cc1)c1ccco1)N1CCCC1 (stereo not drawn),i,1e-09,i,nt,nt
CCOc1ccc(CC(=O)C2C(=O)CCCC2=O)cc1OCC,i,2.2e-08,i,1.7%,-1%
COc1ccc(/C=C(\C#N)C(N)=O)c(OC)c1,i,1e-09,i,4.2%[11.5 µM],5%[11.4 µM]
O=C(CSc1nc(-c2ccc(F)cc2)cs1)N1CCN(C(=O)c2ccco2)CC1,i,1e-09,i,0.6%,?
COc1cc(CNc2ccc3[nH]c(=O)[nH]c3c2)cc(Cl)c1OCC(=O)NC(C)(C)C,i,2.3e-08,i,11%,-4%
COc1ccccc1OCCC(=O)OCCN1C(=O)c2ccccc2C1=O,i,3.4e-09,i,0.0%,?
CCN1CCn2c3c(c4cc(C)ccc42)CCCC31 (stereo not drawn),nt,nt,nt,-0.2%,-3%
CN(c1ccccc1C(=O)NCc1ccco1)S(C)(=O)=O,i,1.2e-09,i,3.6%,-2%
c1csc(-c2nn3c(Cn4nnc5ccccc54)nnc3s2)c1,i,2.9e-08,i,-2.9%,?

# Next part:
SMILES,Resorufin fluor,A647 autofl,A488 autofl,AID923,TSHR agonist
COc1ccc(-c2nnc(SCC(=O)c3cc(C)n(Cc4cccs4)c3C)o2)cc1,i,3.2e-08,i,4.2%,?
CCCCCC(=O)Nc1ccc(S(=O)(=O)Nc2nccnc2OC)cc1,i,2.4e-08,i,0.4%,-5%[11.4 µM]
CN(C)c1nc(-c2cccc(C#N)c2)nc2ccccc12,i,1e-09,i,2.5%,?
Cc1cc(Nc2ccc(F)cc2C)n2ncnc2n1,nt,nt,nt,0.2%,4%
O=c1cc(CO)oc(CN2CCCC2)c1O,i,5.5e-09,i,6.2%,3%[11.4 µM]
N#C/C(Cn1c[n+](NC(=O)Nc2ccccc2)cn1)=N/O,i,1e-08,i,0.9%,-8%
CC1CN(CC(O)COc2ccccc2C(C)(C)C)CC(C)O1 (stereo not drawn),i,5.1e-09,i,-1.1%,30%
CCN1c2ccccc2NC2N=C(OC)C(c3ccccc3)C21 (stereo not drawn),nt,nt,nt,3.2%,?
NC(=O)c1nn(-c2ccccc2)nc1NC(=O)CN1CCCCC1,i,4.1e-09,i,-0.1%,0%[11.4 µM]

# Ordered by number of heavy atoms (ascending): part of the list above.
SMILES,Resorufin fluor,A647 autofl,A488 autofl,AID923,TSHR agonist
CN(C)c1nc(-c2cccc(C#N)c2)nc2ccccc12,i,1e-09,i,2.5%,?
CC1CN(CC(O)COc2ccccc2C(C)(C)C)CC(C)O1 (stereo not drawn),i,5.1e-09,i,-1.1%,30%
COc1ccc(-c2nnc(SCC(=O)c3cc(C)n(Cc4cccs4)c3C)o2)cc1,i,3.2e-08,i,4.2%,?

# Compound activity from PubChem BioAssay.

# Only part of the results is shown; the hit share may differ from the screen's.
